GLA inh pH 4.5 = alpha-galactosidase A (human) inhibition, pH 4.5. P06280. purified enzyme, 4-MU-alpha-Gal fluorescence, pH 4.5. activity change, negative = inhibition, % at 105 µM. 230,000 tested, under 10 active. AID 1467; inconclusive = small, poorly fitted or top-dose-only inhibition, or a rising curve; inactive = flat fitted curve, though single readings scatter; no compound was filed as active;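 note: 0% = full activity with enzyme and -100% = basal without enzyme; dose as in the result columns while the protocol names 77 µM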
Target sequence (P06280 whole entry, looked up): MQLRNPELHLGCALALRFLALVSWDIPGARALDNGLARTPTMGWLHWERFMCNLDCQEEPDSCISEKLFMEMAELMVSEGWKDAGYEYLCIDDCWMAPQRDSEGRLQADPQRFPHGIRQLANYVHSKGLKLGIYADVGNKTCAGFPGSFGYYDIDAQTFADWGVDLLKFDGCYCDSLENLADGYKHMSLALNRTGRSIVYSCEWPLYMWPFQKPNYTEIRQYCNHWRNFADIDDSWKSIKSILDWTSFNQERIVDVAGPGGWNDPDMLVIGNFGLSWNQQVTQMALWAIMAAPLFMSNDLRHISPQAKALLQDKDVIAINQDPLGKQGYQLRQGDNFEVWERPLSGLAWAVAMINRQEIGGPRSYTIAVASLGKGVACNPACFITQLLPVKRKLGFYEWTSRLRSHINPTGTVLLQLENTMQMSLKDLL
Rango release inh = inhibition of RanGTP-driven Rango-importin beta dissociation; Biochemical FRET Rango-importin beta, RanGTP-induced dissociation; Potency, µM (series often up to 46.1 µM), without a hit: top-dose activity change, negative = inhibition; AID 540253; O95149+P62826; 0.071% of 340,000 active; active means falling FRET ratio curve, often poorly fitted, with flat reads before Ran was added; inconclusive means other falling curves, or compound fluorescence or quenching; inactive means flat or rising ratio curve;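 note: potency is the fitted concentration of half-maximal effect; % of control where 0% means no effect; nearly all actives have a fitted effect of over 45% in size; -100% = wells without RanGTP and RCC1; the record marks most hits as doubtful in a second field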
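Two FRET readings bracket the reaction: one 5 min after compound meets Rango–importin beta, another 45 min after RanGTP-RCC1 (0.6 uM Ran, 0.2 uM RCC1, 2 mM GTP) is added. Only the second defines inhibition.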
miR-21 FLuc = raises the signal of a miR-21 reporter | 340,000 tested, under 10 active | Potency, µM (series often up to 38.3 µM), for the others: at the highest dose reporter change, positive = more light | HeLa miR-21 FLuc reporter, luciferase, 48 h; active = well fitted rising curve with a large enough effect; inconclusive = small, poorly fitted or top-dose-only effect; inactive = no such curve, though single readings can be large or run the other way;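 note: % of control where 0% means no effect; miR-21 action dims this reporter so a rising signal means less miR-21 action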
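Luminescence from a firefly luciferase reporter carrying a miR-21 binding site downstream, stably expressed under a CMV promoter in HeLa cells that make miR-21 endogenously, reports miRNA modulation after 48 h compound exposure up to approximately 40uM final.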
Rango complex inh = Rango-importin beta binding inhibition. 0.031% of 340,000 active. Rango CFP/YFP FRET sensor + importin beta, 45 min. AID 540263. Potency, µM (highest dose often 92.2 µM), for inactives: at the top dose inhibition of complex formation. Q14974; active = rising FRET ratio curve, often small or poorly fitted; inconclusive = mostly compound fluorescence or quenching in the first reads; inactive = flat curves in all reads;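 note: potency is the fitted concentration of half-maximal effect; 0% = DMSO wells and 100% = buffer wells lacking importin beta; nearly all actives have a fitted effect of over 15% in size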
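FRET biosensor (snurportin 1 IBB flanked by EYFP and cerulean), 50 nM, with compound 5 min, then 0.125 microM importin beta in PBS, 1 mM DTT, 0.02% Tween-20, 0.1% BSA. CFP/YFP ratio read after 45 min at room temperature; pre-read flags interference.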
* = called active by the depositor; ? = inconclusive; nt = not tested or not shown; [ ] = another dose, or the depositor's remark. Some of the compounds tested; count on the stated rates, not on these rows.

GLA inh pH 4.5 | Rango release inh | SMILES | miR-21 FLuc | Rango complex inh
nt | 20% | Cc1ccc(S(=O)(=O)N(C)C[C@@H]2Oc3ccc(NS(C)(=O)=O)cc3CC(=O)N([C@H](C)CO)C[C@@H]2C)cc1 | nt | 1.0%
-2 | -3% | O=C(COc1ccccc1)NN1C(=O)CSC1=S | -3% | -1.6%
nt | 5% | Nn1c(SCC(=O)Nc2ccc3c(c2)OCCO3)nnc1-c1cccnc1 | -3% | -2.8%
0 | 0% | O=C(CC12CC3CC(CC(C3)C1)C2)NCC(=O)N1CCCC1 | -12% | -1.3%
nt | 1% | O=C(NC1CC1)c1sc2cc(F)ccc2c1Cl | nt | 3.5%
4 | -16% | CC(=O)N1CCN(C(=S)Nc2ccc(SC(F)F)cc2)CC1 | -1% | 0.9%
6 | -15% | CCOC(=O)c1sc2nc(N3CCOCC3)c3c(c2c1N)CC(C)(C)N(C)C3 | -16% | 3.1%
nt | -7% | O=C(NCc1ccco1)c1cc(-c2ccccc2)nn1CC1CC(c2cccc([N+](=O)[O-])c2)=NO1 (stereo not drawn) | nt | ?
5 | 0% | COc1ccc(CCNC(=S)NC(=O)c2ccccc2)cc1OC | -11% | 6.0%
-1 | 1% | CCC(C(=O)NCc1ccco1)N(C(=O)CNS(=O)(=O)c1ccccc1)c1ccc(OC)cc1 (stereo not drawn) | -2% | -3.0%
2 | 17% | COCCNC(=O)c1ccc(C(=O)NCCOC)s1 | -5% | -0.8%
-6 | ? | CC(=O)C1C(=O)c2c(cccc2[N+](=O)[O-])C1=Nc1ccc(S(N)(=O)=O)cc1 (stereo not drawn) | -11% | -0.6%
nt | 7% | Cc1ccc(SCC(=O)NNC(=O)c2cncc(Br)c2)cc1 | nt | -1.1%
-7 | -12% | Cc1cc(Oc2ncccc2[N+](=O)[O-])c2cc(Cl)ccc2n1 | 3% | 0.1%
3 | -3% | Cc1cc(C)cc(NC(=S)/C(=C(\[O-])c2ccc(Cl)cc2Cl)[n+]2ccc(C(C)(C)C)cc2)c1 | -6% | -0.8%
-7 | -6% | COCCNCC(=O)Nc1ccccc1Sc1ccccc1 | -7% | -1.8%

The last 3 records of the part above come first, to join the parts:
GLA inh pH 4.5 | Rango release inh | SMILES | miR-21 FLuc | Rango complex inh
-7 | -12% | Cc1cc(Oc2ncccc2[N+](=O)[O-])c2cc(Cl)ccc2n1 | 3% | 0.1%
3 | -3% | Cc1cc(C)cc(NC(=S)/C(=C(\[O-])c2ccc(Cl)cc2Cl)[n+]2ccc(C(C)(C)C)cc2)c1 | -6% | -0.8%
-7 | -6% | COCCNCC(=O)Nc1ccccc1Sc1ccccc1 | -7% | -1.8%
-10 | -9% | COc1cc(OC)c(C2=NOC(C(=O)Nc3cc(C)nn3-c3ccccc3)C2)cc1Cl (stereo not drawn) | -5% | 0.5%
-9 | 1% | O=C(Cc1cccs1)N1CCCC(c2nc3c(nnn3Cc3cccc(Cl)c3)c(=O)[nH]2)C1 (stereo not drawn) | -5% | -1.7%
nt | 1% | CCOc1ccc(S(=O)(=O)NN=C(C)c2cccnc2)cc1 | nt | -3.6%
6 | 22% | Cn1c(SCc2ccccc2F)nnc1-c1ccccn1 | -59% | -3.1%
nt | 16% | CC(O)[C@H]1CNCCN1CCc1cc(C(F)(F)F)cc(C(F)(F)F)c1 (stereo partly drawn) | nt | 2.7%
3 | -8% | C/C(=N\N1C(=O)c2ccccc2NC1c1ccco1)c1ccccc1O (stereo not drawn) | 5% | 0.2%
0 | -10% | CCOC(=O)Cn1c(=O)oc2cc(S(=O)(=O)NC(C)(C)CC)ccc21 | 6% | -0.5%
-8 | 1% | CC(C)c1ccc(NC(=O)COC(=O)[C@H](CCC(N)=O)NC(=O)c2ccc(F)cc2)cc1 | -17% | -1.7%
-10 | 0% | CSCCC(NC(=O)c1ccccc1)C(=O)O (stereo not drawn) | -1% | -0.2%
nt | -11% | Cc1ccc2nc(SCC(=O)Nc3oc(C)c4c(C)n[nH]c(=O)c34)[nH]c2c1 | nt | -6.1%
nt | -10% | CC(=O)N1CCN(S(=O)(=O)c2cccc(C(=O)Nc3ccc(OC(F)F)cc3)c2)CC1 | 5% | 2.8%
0 | 14% | Cc1ccc(C(C2C(=O)CC(C)(C)CC2=O)C2C(=O)CC(C)(C)CC2=O)s1 | 0% | -1.7%
nt | 14% | CC(Cc1ccccc1)NC(=O)CN1C(=O)c2ccccc2S1(=O)=O (stereo not drawn) | -3% | -0.1%
nt | -17% | CCc1noc(C)c1C(=O)NNC(=O)c1ccc(N(CC)CC)cc1 | nt | 1.5%
-3 | -2% | O=C(CN1C(=O)NC2(CCCCCC2)C1=O)NCc1ccco1 | -7% | -6.0%
nt | -3% | CCN(CC)c1ccc(/C=N/N2C(C)CCCC2C)c(O)c1 (stereo not drawn) | 0% | -3.1%

Part of the list above, with two lines to a compound.
Each structure is followed by: GLA inh pH 4.5 | Rango release inh | miR-21 FLuc | Rango complex inh
> Cc1ccc2nc(SCC(=O)Nc3oc(C)c4c(C)n[nH]c(=O)c34)[nH]c2c1
 : nt | -11% | nt | -6.1%
> CC(=O)N1CCN(S(=O)(=O)c2cccc(C(=O)Nc3ccc(OC(F)F)cc3)c2)CC1
 : nt | -10% | 5% | 2.8%

Next compounds.
GLA inh pH 4.5 | Rango release inh | SMILES | miR-21 FLuc | Rango complex inh
nt | -2% | NC(=S)c1cnn2c(-c3cccc(C(F)(F)F)c3)ccnc12 | -15% | 0.8%
7 | 15µM* | CCN(CC)c1nc2ccccc2nc1-n1nc(C)cc1C | -2% | ?
nt | -22% | Cc1cc(NC(=O)CCC(=O)N(Cc2ccc(F)cc2)C(C(=O)NC2CCCC2)c2ccco2)no1 (stereo not drawn) | 3% | 1.5%
3 | ? | Cc1ccc(C(=O)CCC(=O)N2CCC(C(N)=O)CC2)cc1 | -2% | 0.0%
nt | 20% | Cc1ccccc1C(=O)NC(=S)N(C)C1CCCCC1 | -14% | -1.6%
nt | 10% | Cc1nc(-c2ccc(F)cc2)c(CC(=O)N(C)CC(=O)Nc2c(C)cccc2C)s1 | nt | 0.7%
-7 | ? | Cc1ccccc1OCc1nnc(SCC(=O)Nc2c(C)n(C)n(-c3ccccc3)c2=O)n1-c1ccccc1 | -5% | 1.1%
2 | 9% | COc1ccccc1C(=O)NCc1ccccc1 | -28% | 2.1%
-16 | -11% | Cc1cc(CSc2ccccc2)ccc1NC(=O)c1cccc([N+](=O)[O-])c1 | 1% | -0.7%
nt | 10% | Cc1ccccc1CN1CCN(C(C)C(=O)NNC(=O)c2ccc(F)cc2)CC1 (stereo not drawn) | nt | -1.4%
-7 | ? | O=C1C(Cl)=C(NCC2CCCO2)C(=O)N1Cc1ccccc1 (stereo not drawn) | -9% | ?
-1 | -1% | COc1ccccc1-n1c(SCC(=O)Nc2cccc(C)c2)nc2c(c1=O)SCC2 | -13% | -2.7%
5 | -12% | CC1=CC(=C(C#N)C#N)C=C(C)N1CCN1CCN(C(=O)Nc2cccc(Cl)c2)CC1 | -6% | ?
nt | 5% | Cc1ccc(S(=O)(=O)N2CCC(C(=O)N3CCCC(C(F)(F)F)C3)CC2)cc1C (stereo not drawn) | nt | 4.2%
-1 | 0% | CCc1ccc(NC(=O)C(=O)NCCN2CCN(S(C)(=O)=O)CC2)cc1 | 0% | -2.4%
-1 | 5% | CCn1c(SCC(=O)N/N=C/c2cccs2)nc2ccccc21 | -6% | 3.2%

An excerpt from above, reduced to Rango release inh and GLA inh pH 4.5:
compound,Rango release inh,GLA inh pH 4.5
Nn1c(SCC(=O)Nc2ccc3c(c2)OCCO3)nnc1-c1cccnc1,5%,nt
O=C(Cc1cccs1)N1CCCC(c2nc3c(nnn3Cc3cccc(Cl)c3)c(=O)[nH]2)C1 (stereo not drawn),1%,-9
O=C(NC1CC1)c1sc2cc(F)ccc2c1Cl,1%,nt
CC(Cc1ccccc1)NC(=O)CN1C(=O)c2ccccc2S1(=O)=O (stereo not drawn),14%,nt

(list continues)
GLA inh pH 4.5 | Rango release inh | SMILES | miR-21 FLuc | Rango complex inh
5 | -21% | O=Cc1cn(-c2ccccc2)nc1-c1ccncc1 | 3% | 2.3%
nt | -4% | Cc1ccc(NC(=O)C2CCN(S(=O)(=O)c3ccc4[nH]c(=O)oc4c3)CC2)cc1F | -14% | -2.5%
-5 | 23% | CCN(CC)c1ccc(NC(=O)C2=CCN(S(=O)(=O)c3ccc(F)cc3)CC2)c(C)c1 | 4% | 4.1%
-4 | -16% | Nc1nonc1-c1nc2ccccc2n1Cc1ccccc1 | 9% | -3.1%
-4 | 1% | CN1CCN(CC#CCC2(O)c3ccccc3-c3ccccc32)CC1 | -2% | -0.4%
-4 | 3% | Cc1ccc(Cl)cc1N1CCN(C(=O)C2CCN(S(=O)(=O)c3cnc[nH]3)CC2)CC1 | -1% | -0.7%
1[21.1 µM] | -5% | O=C(CCNS(=O)(=O)c1cccs1)NC1CCN(Cc2ccccc2)CC1 | 0% | 0.0%
nt | 1% | Fc1ccccc1-c1nc2c(s1)CCc1onc(-c3ccc(Br)cc3)c1-2 | nt | -2.5%
-5 | 2% | C=CCc1ccc(OCC(O)CN2CCC(Cc3ccccc3)CC2)c(OC)c1 (stereo not drawn) | 16% | 2.9%
-2 | -6% | Nc1nc(-c2ccc(-n3nncc3-c3ccco3)cc2)cs1 | -14% | 0.0%
nt | 32% | CC(C)C(=O)Nc1ccc(Cl)cc1-c1nc2ccccc2[nH]c1=O | 0% | -6.4%
-3 | 41% | Cc1c(C(=O)NC2CCCc3ccccc32)oc2ccccc12 (stereo not drawn) | 2% | 1.8%
nt | ? | COc1ccc2[nH]c(C(=O)N/N=C/c3ccc(O)cc3O)cc2c1 | 16% | ?
-31 | 24% | Cc1ccc(Cn2nnc3c(=O)[nH]c(C4CCN(S(=O)(=O)c5cc(C)ccc5C)CC4)nc32)cc1 | 0% | -3.8%
nt | -1% | Cc1ccc(S(=O)(=O)N2CCN(C(=O)c3ccccc3Cc3ccccc3)CC2)c(C)c1 | -2% | -2.4%
nt | 14% | CC(C)(C)NC(=O)C(c1ccco1)N(C(=O)Cn1nnc(-c2ccc(F)cc2)n1)c1ccccc1 (stereo not drawn) | nt | -0.5%
-2 | 8% | NC12CCc3c(no[n+]3[O-])C1(O)CC(c1ccccc1)=[N+]2[O-] (stereo not drawn) | -1% | 1.4%
-5 | 10% | COc1ccc(-c2ccc(C)cc2)cc1[C@H]1[C@@H]2C=CCC[C@@]2(C)C(=O)N1Cc1ccccc1 | 24% | 6.8%
-5 | -1% | COc1cc(/C=C/c2ccc3c(Br)cc(Br)c(O)c3n2)ccc1O | ? | 2.7%
-4 | -13% | CC(=O)c1ccc(OCC(=O)NCc2ccc(F)cc2)cc1 | 0% | 1.3%
-2 | 10% | CCN(CC)c1ncnc2sc(C(=O)N3CCN(c4ccccc4)CC3)c(C)c12 | -8% | 2.9%

From PubChem
